Sa growth inh = inhibitors of Staphylococcus aureus growth at 42 °C; S. aureus RN4220 growth, OD600, 20 h; stronger effect = lower value; relative growth, % (concentration not given with the values); 170,000 compounds, 0.53% hits;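 active = growth at 42 °C up to 50% and 20 or more points under that at 30 °C, or under 10% at both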;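 note: 300 nL library stock went into each well; scaled to the means of positive and negative controls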
HCMV NEC inh = inhibitors of HCMV UL50-UL53 nuclear egress complex interaction; inhibition, % (no concentration beside the values); 190,000 compounds, 0.15% hits; HTRF UL50-UL53 interaction, normalized percent inhibition;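 active = both replicates at 50% or more, plus weaker picks with an unusually low signal ratio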;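 note: stock transfer was 100 nL into about 20 µL; 0% = negative control wells and 100% = wells with untagged competitor protein; inactives centre near -12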
GIV-Gai inh = blocks GIV peptide binding to rat Galpha-i3; P08753; Galpha-i3/FITC-GIV peptide fluorescence polarization, 90 min; stronger effect = lower value; scaled: aluminum fluoride 0%, vehicle 100%; percent of control (FP), % (no concentration beside the values); 210,000 compounds, 0.42% hits; AID 1224905;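 active = replicate mean at 85% of control or lower, very high polarization wells dropped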;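 note: wells of about 15 µL received 100 nL stock; the first replicate is given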
Target sequence (P08753 whole entry, looked up): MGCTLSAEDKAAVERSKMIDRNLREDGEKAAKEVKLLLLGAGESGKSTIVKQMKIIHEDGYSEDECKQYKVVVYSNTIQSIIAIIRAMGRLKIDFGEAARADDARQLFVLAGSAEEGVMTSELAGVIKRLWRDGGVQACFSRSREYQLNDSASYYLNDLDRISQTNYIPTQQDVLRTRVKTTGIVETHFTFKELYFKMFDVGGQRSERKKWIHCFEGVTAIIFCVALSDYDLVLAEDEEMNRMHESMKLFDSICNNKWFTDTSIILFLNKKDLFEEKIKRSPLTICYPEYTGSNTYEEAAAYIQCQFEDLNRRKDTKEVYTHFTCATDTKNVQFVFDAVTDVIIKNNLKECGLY
Sa growth inh second temp = also measured in Sa growth inh; calls as there; relative growth, %; measured here: growth at 30 °C;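 optical density after 20 h as mean of two plates; 100% = untreated growth and lower means inhibition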
An asterisk follows results filed as active; . = no result given; & = joins results of further samples. Outcome played no part in choosing rows. About 0.82% of those tested had a hit in this group.

nr	SMILES	Sa growth inh	Sa growth inh second temp
1	COc1ccccc1N1CCN(C(c2cccs2)C(C)NS(=O)(=O)c2ccc(F)cc2)CC1 (centres undefined)	83	67
2	Cc1ccc(CNC(=O)CCSCc2ccccc2F)cc1	98	96
3	O=C(Nc1ccccc1Cl)C1CCN(Cc2cnn(-c3ccccc3)c2-n2cccc2)CC1	137	77
4	O=C(NC1CC(=O)N(c2ccccc2)C1)C(c1ccccc1)c1ccccc1 (centres undefined)	102	86
5	O=C(CCNS(=O)(=O)c1ccc(Br)s1)Nc1ccc(Br)cc1	109	91
6	COc1ccc(Oc2c(C(F)(F)F)oc3cc(OCC(=O)OC(C)C)ccc3c2=O)cc1	.	.
7	Cc1ccc(S(=O)(=O)N(CC(=O)NCc2ccncc2)C2CCCCC2)cc1	102	89
8	CCc1cc2c(SCC(=O)c3ccc(Br)cc3)ncnc2s1	103	85
9	CNC(=O)Cc1ccc(-n2c(=O)c3ccccc3n(CC(=O)NCc3ccc4c(c3)OCO4)c2=O)cc1	.	.
10	Cc1c(C(=O)Nc2ccc(F)cc2F)sc2nc3n(c(=O)c12)N=C(c1ccccc1)CS3	99	80

nr	GIV-Gai inh	HCMV NEC inh
1	99	.
2	106	.
3	108&118	-2&-4
4	99	.
5	107	-27
6	101	-18
7	.	-8
8	102	.
9	95	15
10	102	.

Other structures.
nr	SMILES	Sa growth inh	Sa growth inh second temp
11	CC(=O)c1cccc(NC(=O)CN2C(=O)CC(c3ccc(C)cc3C)=Nc3ccccc32)c1	110	105
12	O=C1c2cccc3cccc(c23)N1CN1CCN(c2ccccc2)CC1	90	92
13	Cc1ccc([N+](=O)[O-])cc1S(=O)(=O)N(C)C	.	.
14	CCOC(=O)COc1cccc2c(=O)n(CC(=O)N3CCCCC3)ccc12	113	79
15	O=C(CCNS(=O)(=O)c1ccc2c(c1)CCCC(=O)N2)NCc1ccc(Cl)cc1	90	93
16	Clc1cccc2nc3n(c12)CCN(Cc1ccccc1)C3	.	.
17	Cc1cc(C)cc(NC(=O)CSCCn2c(C)csc2=O)c1	99	97
18	CCOC(=O)CN1C(=O)COc2ccc(C)cc21	97	92
19	O=C1CC(c2cccc([N+](=O)[O-])c2)CC2=C1C(c1ccco1)N(C(=O)C(F)(F)F)c1ccccc1N2 (centres undefined)	.	.
20	CC(C)N(Cc1ccccc1)S(=O)(=O)c1ccc(C#N)cc1	91	86

nr	GIV-Gai inh	HCMV NEC inh
11	111	.
12	.	-54
13	107	-48&-87
14	101	-31
15	106	.
16	95	-28
17	.	-5
18	103	-28
19	100	-19
20	.	4

(further entries)
nr	SMILES	Sa growth inh	Sa growth inh second temp
21	CCc1nnc(NC(=O)COC(=O)CSc2nc(-c3ccccc3)cc(-c3ccccc3)n2)s1	102	92
22	Cc1[nH]c(C(=O)NCCCN2CC(C)CC(C)C2)c(C)c1C(=O)NC1CCCCC1 (centres undefined)	119	99
23	Cn1c(CN)nnc1SCc1ccccc1	94	86
24	O=C(O)CN(CCc1ccccc1)S(=O)(=O)c1ccccc1	104	92
25	Cc1c(C(=O)N2CCCCCC2)oc2ccccc12	116	95
26	NC1=NC(=O)C(CC(=O)O)CS1 (centres undefined)	97	88
27	c1ccc2sc(NC3=NCN(CC4CCCO4)CN3)nc2c1 (centres undefined)	83	87
28	O=C(CCNc1ccc(Cc2ccncc2)cc1)c1ccco1	102	106
29	Cc1ccc(Cn2cccc2C2=NC(C(C)C)CO2)cc1 (centres undefined)	.	.
30	COc1ccc(CCNC(=O)c2cc(-c3ccccc3)nc3ccccc23)cc1OC	113	95

nr	GIV-Gai inh	HCMV NEC inh
21	.	5
22	104	-7
23	99	12
24	102	.
25	105	10
26	.	-10
27	105	-16
28	102	-21
29	104	-26
30	106	-28

The results go on:
nr	SMILES	Sa growth inh	Sa growth inh second temp
31	CCN(CC)S(=O)(=O)c1ccc2c(c1)N(CC(=O)N1CCN(c3ccc(Cl)cc3)CC1)C(=O)CO2	109	48
32	O=C(CSc1nnc(C(=O)Nc2ccc(F)cc2)s1)NCCCN1CCc2ccccc2C1	.	.
33	CCOCCC(=O)N1CCN(C)CC1	105	96
34	Cc1ccc(C(=O)N2CCc3cc(CNC(=O)COc4ccccc4)ccc32)cc1	99	76
35	Cc1nn2c(C)c(C(=O)Nc3ccccc3)cnc2c1C#N	83	85
36	Cn1c(=O)n(C)c2cc(/C=C3\C(=O)NC(=O)N(c4ccc(Cl)cc4)C3=O)ccc21	92	70
37	Cn1c(=O)c2c(nc3n(-c4ccc(O)cc4)c(-c4ccc(Br)cc4)cn23)n(C)c1=O	115	103
38	COCCOC(=O)c1sc(=S)n(CCOC)c1N	114	99
39	Clc1ccc(-c2noc(-c3ccc(N4CCOCC4)nn3)n2)cc1	.	.
40	CCc1ccc(NC(=O)NCc2c(C)nn(C)c2C)cc1	101	87

nr	GIV-Gai inh	HCMV NEC inh
31	103	.
32	102	-3
33	109	6
34	100	.
35	104	-12
36	106	-1
37	108	-8
38	.	-28
39	97	-32
40	108&105	-35&-20

Further entries.
nr	SMILES	Sa growth inh	Sa growth inh second temp
41	CNc1nc2c(c(=O)n(C)c(=O)n2C)n1CC(O)COc1ccc(OC)cc1 (centres undefined)	105	92
42	CCCc1ccc(S(=O)(=O)N2CCC(c3nnc(-c4cccc(C)c4)o3)CC2)cc1	97	86
43	COc1ccc(NC(=O)c2c(-c3cccnc3)noc2C)cc1OC	.	.
44	COc1cc2c(cc1OC)C(C(=O)N1CC(C)CC(C)C1)C(c1cccnc1)N(C)C2=O (centres undefined)	90	86
45	Cc1nnsc1-c1onc(C)c1C(=O)O/N=C(\N)c1cc(C(F)(F)F)cc(C(F)(F)F)c1	100	92
46	CCc1nnc2sc(-c3cc4ccccc4[nH]3)nn12	.	.
47	CC1(C)OC2C(COS(C)(=O)=O)OC(n3cnc4c(=O)[nH]cnc43)C2O1 (centres undefined)	.	.
48	COC(=O)c1cccc(Cn2nnc3sc4c(c3c2=O)CCC(C(C)(C)C)C4)c1 (centres undefined)	97	93
49	C=C(C(=O)O)C(CC(=O)O)C(=O)O (centres undefined)	102	83
50	N#Cc1c(NC2CCCCC2)nc(-c2ccco2)c2c1CCCC2	57	59

nr	GIV-Gai inh	HCMV NEC inh
41	109	-8
42	101	-36
43	104	-15
44	103	-19
45	106	-21
46	115	-31
47	103	-10
48	106	-20
49	106	-15
50	104	20

Part of the list above, reduced to Sa growth inh second temp, Sa growth inh and GIV-Gai inh:
item	canonical_smiles	Sa growth inh second temp	Sa growth inh	GIV-Gai inh
41	CNc1nc2c(c(=O)n(C)c(=O)n2C)n1CC(O)COc1ccc(OC)cc1 (centres undefined)	92	105	109
42	CCCc1ccc(S(=O)(=O)N2CCC(c3nnc(-c4cccc(C)c4)o3)CC2)cc1	86	97	101
43	COc1ccc(NC(=O)c2c(-c3cccnc3)noc2C)cc1OC	.	.	104
44	COc1cc2c(cc1OC)C(C(=O)N1CC(C)CC(C)C1)C(c1cccnc1)N(C)C2=O (centres undefined)	86	90	103

Remaining list, next part:
nr	SMILES	Sa growth inh	Sa growth inh second temp
51	O=C(O)c1ccccc1C(=O)Nc1ccc(S(=O)(=O)Nc2nccs2)cc1	98	95
52	CN(CCc1ccccn1)C(=O)c1cccnc1Oc1ccccc1	86	78
53	CCOc1ccc(C(NC(=O)c2ccco2)c2ccc(OC)c(OC)c2)cc1 (centres undefined)	74	94
54	O=C1C(=O)N(Cc2ccccc2)CCN1CC(=O)N1CCc2ccccc21	.	.
55	COc1ccc(-c2csc(NCCCN(C)C)n2)cc1	94	86
56	O=C(c1ccccc1)c1ccc(C(=O)N2CCN(c3ccc(O)cc3)CC2)cc1	99	97
57	O=C(CCS(=O)(=O)c1cccc2nonc12)Nc1ccc(F)cc1F	106	100
58	Cc1ccc(C)c(NC(=O)CN(C)S(=O)(=O)c2ccc3c(c2)CCCC(=O)N3)c1	96	97
59	CCN(Cc1ccncc1)C(=O)COc1ccccc1O	93	88
60	Cc1ccc(NC(=S)NC(=O)CC2CC(C)(C)OC2=O)cc1 (centres undefined)	119	93

nr	GIV-Gai inh	HCMV NEC inh
51	.	-27&-1
52	97	-21
53	102	-47
54	105	-12
55	108	-19
56	.	-1
57	105	.
58	106	5
59	.	-16
60	101	.

Next records.
nr	SMILES	Sa growth inh	Sa growth inh second temp
61	COc1cc(Br)c(CNC(C)(C)CO)cc1OC	98	103
62	CC(=O)NCCSc1nnnn1-c1ccccc1	92	94
63	O=NN(CCCl)C(=O)NCCCl	90	93
64	Cc1c(C)c(C)c(CSc2ccccc2N)c(C)c1C	105	97
65	O=c1nc(SCc2ccccc2F)c2c(n1C1CCCC1)CCC2	.	.
66	Cc1oc2ccc(O)c(Cl)c2c1C(=O)O	89	87
67	Cn1c(C(=O)N2CCCC(C(=O)N3CCc4ccccc4C3)C2)cc2sccc21 (centres undefined)	104	86
68	COc1ccc(-c2noc(-c3ccc(OCC(=O)NC4CCCCC4)cc3)n2)cc1	.	.
69	CCOC(=O)c1oc2ccc(Br)cc2c1COC(=O)C1CC2CCCC(C1)C2=O (centres undefined)	95	103
70	Nc1nc(C(F)(F)F)cc(=O)n1N	96	97

nr	GIV-Gai inh	HCMV NEC inh
61	105	-23
62	102	.
63	100	-29&-24
64	106	9
65	113	-11
66	97	-27
67	101	-12
68	108	-26
69	.	8
70	97	-11

Compound profiles (already shown). Values in the order: Sa growth inh, Sa growth inh second temp, GIV-Gai inh, HCMV NEC inh
Cc1oc2ccc(O)c(Cl)c2c1C(=O)O in the list: 89, 87, 97, -27
O=NN(CCCl)C(=O)NCCCl in the list: 90, 93, 100, -29&-24
COc1ccc(-c2noc(-c3ccc(OCC(=O)NC4CCCCC4)cc3)n2)cc1 in the list: ., ., 108, -26
Cn1c(C(=O)N2CCCC(C(=O)N3CCc4ccccc4C3)C2)cc2sccc21 (centres undefined) in the list: 104, 86, 101, -12
Cc1c(C)c(C)c(CSc2ccccc2N)c(C)c1C in the list: 105, 97, 106, 9

Next records
nr	SMILES	Sa growth inh	Sa growth inh second temp
71	CCN(CC)CCOc1ccc(/C(C)=N\O)cc1	108	87
72	Cc1[nH]n(-c2ccccc2)c(=S)c1/C=N/c1nc(-c2ccccc2)cs1	87	71
73	O=C1Nc2ccccc2N(O)N1c1cc(-c2ccccc2)[nH]n1	96	93
74	CC(C)(C)c1ccccc1OCC(=O)Nc1ccc(OCc2ccccc2)cc1	115	87
75	CCC1(C)NC(=O)N(/N=C/c2c(O)ccc3ccccc23)C1=O (centres undefined)	89	90
76	COc1ccccc1CNC(=O)c1ccccc1OC	100	105
77	O=C(NC1(C(F)(F)F)N=C(c2ccccc2)N(C2CCCCC2)C1=O)c1ccc(F)cc1 (centres undefined)	106	85
78	Cc1cc(C)cc(NS(=O)(=O)c2c[nH]c(-c3nnc(C)o3)c2)c1	.	.
79	CCOC(=O)c1nc(C)nc(Sc2n[nH]c(-c3ccccc3)n2)c1C	97	98
80	COc1ccc(OC)c(NC(=O)CSc2ccnc(=O)[nH]2)c1	136	92

nr	GIV-Gai inh	HCMV NEC inh
71	.	-15
72	107	.
73	99	-4
74	.	0
75	.	-35
76	99	-4
77	104	-16
78	103	-47
79	105	3
80	105	.

Other entries.
nr	SMILES	Sa growth inh	Sa growth inh second temp
81	Cc1ccc2c(=O)cc(C(=O)Nc3ccc(S(=O)(=O)Nc4onc(C)c4C)cc3)oc2c1	86	85
82	COc1ccc(C(=O)c2ccccc2)c(OCC(=O)NC23CC4CC(CC(C4)C2)C3)c1	82	103
83	O=C(Cc1cccc(F)c1)NC1CCOc2ccccc21 (centres undefined)	100	93
84	CN(C)CCCNc1oc(-c2ccccc2Cl)nc1S(=O)(=O)c1ccc(F)cc1	126	102
85	O=C(NCc1ccccc1Cl)c1nsc2ccccc12	108	96
86	CCCn1nc(C(=O)NCc2ccccc2)c2ccccc2c1=O	103	74
87	O=C(Nc1cccc(Cl)c1)c1nnc(COCC(=O)N2CCN(C3CCCCC3)CC2)s1	.	.
88	OCc1noc(-c2cccs2)n1	116	100
89	Cc1cc2nc(C(C)(C)C)cc(N)n2n1	97	82

nr	GIV-Gai inh	HCMV NEC inh
81	100	-40
82	.	14
83	.	-35
84	100	-10
85	106	-11
86	.	-15
87	100	-41
88	101	-5
89	103	-8

Screens: PubChem BioAssay, ICCB-Longwood Screening Facility, Harvard Medical School
